Bioassay records from PubChem.
E coli growth: E. coli growth inhibition; Escherichia coli growth, OD600, 23 h; active compounds read low; OD600 absorbance (test concentration not listed); actives 0.21% (n = 330,000); AID 1053175;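 active = OD600 absorbance below the run mean of sample wells minus 3.6 SD, in any replicate, cut at about 0.56 in these data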;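 also: stock transfer was 300 nL into about 60 µL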
HNF4A DNA FP: change in binding of human HNF4 alpha to DNA; P41235; HNF4a-FITC DNA binding, fluorescence polarization, 1 h; activity change, % at 10 µM; actives 0.3% (n = 360,000); AID 1224865; in the data active = activity change above about 30%, passing the limit was not always enough;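 also: controls were the assay level and a saturating level of protein; the project sought stronger binding though the title names inhibitors; some compounds called inactive have numbers as strong as hits; positive values seem to mean higher polarization but the record does not say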
A1 inh: inhibitors of the anti-apoptotic protein A1, read as caspase activation; MEF A1-2A-BIM cells, Caspase-Glo 3/7 luminescence, 3 h; percent of clofoctol response, vehicle zero; caspase activation, % (concentration not given with the values); actives 0.066% (n = 330,000); AID 2462;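 active = over half of replicate activation scores above 10%, or exactly half above 10 with the replicate mean above 10; inconclusive = replicate mean below 10 yet half the replicates above 10; inactive = over half of replicates below 10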;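 also: wells of about 30 µL received 50 nL stock; many hits fall short of the cut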
UCH37 inh: human UCH37 deubiquitinating enzyme inhibition | Q9Y5K5 | actives 0.33% (n = 330,000) | inhibition, % (concentration not given with the values) | purified proteasome/UCH37, Ub-AMC cleavage fluorescence;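 active = mean of two replicates above 20%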;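 also: 0% = compound-free wells with enzyme and 100% = wells lacking proteasome; stock transfer was 100 nL into about 20 µL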
Target sequence (Q9Y5K5 whole entry, looked up): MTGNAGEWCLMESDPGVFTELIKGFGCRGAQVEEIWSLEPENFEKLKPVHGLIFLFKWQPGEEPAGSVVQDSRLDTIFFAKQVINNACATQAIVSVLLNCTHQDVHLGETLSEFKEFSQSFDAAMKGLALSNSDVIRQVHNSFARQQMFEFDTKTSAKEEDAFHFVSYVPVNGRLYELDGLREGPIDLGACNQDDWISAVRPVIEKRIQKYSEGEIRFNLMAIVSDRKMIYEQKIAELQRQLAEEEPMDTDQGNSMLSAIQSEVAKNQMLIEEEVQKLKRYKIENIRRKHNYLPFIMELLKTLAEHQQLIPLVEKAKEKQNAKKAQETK
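system = Proteasome-associated human UCH37 deubiquitinase | amount = 0.15 nM proteasome as dispensed | medium = pH 7.4 Tris-HCl (50 mM) with ovalbumin, ATP-MgCl2, DTT | incubation = 30 min preincubation with enzyme, 25 min cleavage at room temperature | detection = AMC fluorescence 355/460 nm | read-out basis = percent inhibition | controls = no-proteasome and no-compound wells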
Beta2AR agonist: human beta-2 adrenergic receptor agonism by FAP; P07550; response, % (concentration not given with the values); Am2.2-beta2AR cells, FAP receptor internalization, flow cytometry; reference of the scale not given here; AID 504454; actives 0.43% (n = 340,000);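 active = response above a set limit, near 3 SD of response in nonfluorescent compounds, cut at about 42% in these data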;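 also: stock transfer was 100 nL into about 11 µL; a reference agonist was the positive control; negative values mostly stem from fluorescent compounds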
Target sequence (P07550 whole entry, looked up): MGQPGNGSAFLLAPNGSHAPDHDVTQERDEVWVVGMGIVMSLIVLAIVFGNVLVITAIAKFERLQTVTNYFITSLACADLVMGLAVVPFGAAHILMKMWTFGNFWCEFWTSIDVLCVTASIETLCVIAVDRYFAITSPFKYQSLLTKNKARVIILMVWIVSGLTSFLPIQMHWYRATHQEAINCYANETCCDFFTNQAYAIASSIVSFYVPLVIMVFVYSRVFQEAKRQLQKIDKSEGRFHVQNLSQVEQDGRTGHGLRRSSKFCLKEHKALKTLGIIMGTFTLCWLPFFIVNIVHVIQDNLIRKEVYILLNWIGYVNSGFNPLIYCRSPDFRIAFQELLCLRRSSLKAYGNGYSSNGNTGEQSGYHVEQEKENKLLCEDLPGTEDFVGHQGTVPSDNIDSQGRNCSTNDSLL
LANA-H2A inh: blocks KSHV LANA binding to histone H2A/H2B; Q9QR71; cell-free LANA-H2A/H2B peptide, fluorescence polarization; inhibition, % (concentration not given with the values); actives 0.6% (n = 320,000); AID 2629; in the data active = inhibition mostly above about 10%, no sharp cut-off; inactive = mostly below about 6.7%;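 also: stock transfer was 7.5 nL into about 10 µL; 0% = median of vehicle wells and 100% = median of positive control wells; one replicate is shown; the record names a cut of 25% in any replicate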
Vif TR-FRET: HIV-1 Vif–A3G interaction blockers – biochemical, TR-FRET, GST-Vif 1-94, biotin-A3G peptide, dose response retest, primary screen (AID 1117319); actives 0.57% (n = 260,000); inhibition, %, or IC50 in µM where a hit was titrated; TR-FRET GST-Vif / biotin-A3G peptide binding; higher % means a stronger effect; test concentration not given here; strong numbers were not always called active;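 active = above the screen mean plus three standard deviations and confirmed in dose response; inconclusive = results disagree or hit not tested in dose response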;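 also: Vif residues 1-94 fused to GST binding biotinylated APOBEC3G peptide 110-148; 0% = full assay without inhibitor and 100% = GST in place of GST-Vif; retest series ran down from 100 µM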
* = called active by the depositor; ? = inconclusive; / = no result given.

Every second line gives: E coli growth	HNF4A DNA FP	A1 inh	UCH37 inh	Beta2AR agonist	LANA-H2A inh	Vif TR-FRET
COCCNC(=O)CSc1nccn1Cc1ccc2c(c1)OCO2
→ 0.72	5.1	-0.6	-0.9	-7	-1.0	8%
O=C(CCCN1C(=O)/C(=C/c2ccccc2)SC1=S)Nc1ccc(O)cc1
→ 0.72	3.0	-0.6	3.6	-2	0.2	-12%
NC(=O)c1ccc(NS(=O)(=O)c2ccc(Br)s2)cc1
→ 0.65	1.6	1.3	1.2	5	1.6	6%
COc1ccc(/C=C(\C#N)C(=O)ONC2=NCCCCC2)cc1
→ 0.68	3.5	0.5	-1.4	-28	-3.5	-11%
COc1cccc(NC(=O)CN(c2cccc(F)c2)S(C)(=O)=O)c1
→ 0.71	0.7	-0.1	1.5	-1	-0.8	-5%
Cc1c(O)ccc(C(=O)CN2C(=O)c3ccccc3C2=O)c1O
→ 0.69	1.4	-0.3	3.7	1	-5.4	23%
CCN(CC)C(=O)C(Cc1ccccc1)N1C(=O)c2ccccc2C1=O (stereo not drawn)
→ 0.76	2.1	-0.2	3.0	-4	4.1	1%
CCCn1c(NCc2cccc(OC)c2O)nc2ccccc21
→ 0.65	1.5	-0.5	2.0	-3	0.0	?
O=C(NC(Cc1c[nH]c2ccccc12)C(=O)O)/C(=C/c1ccc2c(c1)OCO2)NC(=O)c1ccccc1 (stereo not drawn)
→ 0.67	-4.4	/	5.1	5	/	/
O=C(Oc1cccc2ccccc12)C1CC1
→ 0.6	-0.3	-0.4	1.3	4	4.4	/
O=C(NC1CCCCC1)C(c1ccncc1)N(C(=O)c1csnn1)c1ccccc1 (stereo not drawn)
→ 0.68	-0.3	-0.1	0.6	-6	-4.6	-13%
O=C(NNC(=O)c1cc2cc(OC(F)(F)F)ccc2[nH]1)c1cccc(C(F)(F)F)c1
→ 0.65	-1.2	-0.3	4.1	10	4.0	3%
COc1cnn(-c2ccc([N+](=O)[O-])cc2)c(=O)c1Cl
→ 0.66	3.3	0.0	0.5	4	-1.0	/
COc1ccc(OC)c(NCc2nnc(-c3ccccc3)o2)c1
→ 0.69	-1.3	0.5	1.7	-4	1.5	-1%
COc1ccc(C(=O)NC(=S)Nc2ccc3c(c2)Cc2ccccc2-3)cc1
→ 0.79	4.4	0.4	3.1	10	3.7	-3%
Cc1cc(NS(=O)(=O)c2ccc(NC(=O)COc3ccc(C#N)cc3)cc2)nc(C)n1
→ 0.68	-1.2	1.0	1.4	-6	2.0	/
CCOc1[nH]n(-c2ccccc2)c(=O)c1C=Nc1ccc(Cl)cc1
→ 0.74	-3.7	-0.3	6.7	-10	2.2	-2%
Cc1ccc(NNC(=O)c2ccno2)c(C)c1
→ 0.68	4.7	0.9	0.5	-4	-0.4	-1%
CCCCCN(C(=O)CCC(=O)OCCOc1ccccc1)c1c(N)n(CCCC)c(=O)[nH]c1=O
→ 0.7	-0.6	0.6	3.6	6	2.2	/
CCC(CC)=NNc1ccc(S(N)(=O)=O)cc1[N+](=O)[O-]
→ 0.71	2.7	0.2	4.8	-6	6.0	?
CC1CCCCC1NS(=O)(=O)c1ccc(S(=O)(=O)N2CCN(CCC#N)CC2)cc1 (stereo not drawn)
→ 0.75	-0.9	-0.1	1.8	7	2.2	2%
O=C(Cc1cccc2ccccc12)N/N=C/c1ccc(F)cc1
→ /	-5.8	-1.3	/	-3	-4.4	-5%
CC(NC(=O)C1CC=CCC1C(=O)O)C1CC2CCC1C2 (stereo not drawn)
→ 0.71	-1.3	0.9	0.0	1	-1.1	1%
COc1ccc(CCNC(=O)CCCOc2ccc(C)cc2)cc1OC
→ 0.66	-0.8	0.7	-1.0	5	1.7	3%
Nc1c(C(=O)Nc2cccc(C(=O)O)c2)sc2nc3c(cc12)CCCC3
→ /	4.7	-7.1	/	-2	3.6	/
C=CCNC(=S)NC(=O)c1ccc(C)c(Br)c1
→ 0.71	8.7	0.1	6.0	-9	-3.4	/
CCOC(=O)c1ccccc1NC(=O)COC(=O)c1ccccc1C(=O)N(C)c1ccccc1
→ 0.72	-4.6	0.8	2.9	5	-3.5	-2%
COc1ccc(-n2c(=S)[nH]c3cc(C(=O)NCCCN4CCCC4=O)ccc3c2=O)cc1
→ 0.68	-1.7	0.9	1.2	1	-2.4	-1%
CCN1C(=O)[C@H]2[C@@H](c3ccc(-c4ccc(C(C)=O)cc4)c(OC)c3)N3CCCC[C@@]3(C(=O)OC)[C@H]2C1=O
→ /	5.4	0.6	0.9	6	1.5	/
Cc1ccc(SCC(=O)NNC(=O)CCS(=O)(=O)c2ccccc2)cc1
→ 0.68	2.2	0.2	2.0	0	9.1	-2%

Some of the entries so far, field by field.
SMILES: COc1cnn(-c2ccc([N+](=O)[O-])cc2)c(=O)c1Cl
  E coli growth: 0.66
  HNF4A DNA FP: 3.3
  A1 inh: 0.0
  UCH37 inh: 0.5
  Beta2AR agonist: 4
  LANA-H2A inh: -1.0
  Vif TR-FRET: /

SMILES: CC(NC(=O)C1CC=CCC1C(=O)O)C1CC2CCC1C2 (stereo not drawn)
  E coli growth: 0.71
  HNF4A DNA FP: -1.3
  A1 inh: 0.9
  UCH37 inh: 0.0
  Beta2AR agonist: 1
  LANA-H2A inh: -1.1
  Vif TR-FRET: 1%

SMILES: Cc1c(O)ccc(C(=O)CN2C(=O)c3ccccc3C2=O)c1O
  E coli growth: 0.69
  HNF4A DNA FP: 1.4
  A1 inh: -0.3
  UCH37 inh: 3.7
  Beta2AR agonist: 1
  LANA-H2A inh: -5.4
  Vif TR-FRET: 23%

The listing continues:
Every second line gives: E coli growth	HNF4A DNA FP	A1 inh	UCH37 inh	Beta2AR agonist	LANA-H2A inh	Vif TR-FRET
Cc1ccc(S(=O)(=O)Nc2c(C(=O)O)[nH]c3ccccc23)cc1C
→ 0.69	3.0	0.0	2.6	-3	-0.8	/
CCOc1ccc(C(=O)NC(=S)Nc2ccccn2)cc1[N+](=O)[O-]
→ 0.79	-1.7	-0.7	2.1	-5	10	-3%
Cc1ccc(S(=O)(=O)N2CCCCC2C(=O)N2CCN(c3ccccc3F)CC2)cc1 (stereo not drawn)
→ 0.72	-5.6	0.6	0.2	-1	-11	11%
COc1cc(/C=C/CNC[C@H]2O[C@@H](n3ccc(=O)[nH]c3=O)[C@H](O)[C@@H]2O)ccc1O
→ /	1.1	/	/	-5	/	-2%
O=C(COc1cc(Cl)c(Cl)cc1Cl)N1CCN(c2ccccn2)CC1
→ 0.69	-3.3	-0.1	1.0	-16	-4.0	/
O=C(NCC(=O)N1CCN(c2ccccc2)CC1)c1ccccc1
→ 0.67	5.7	0.1	0.5	-1	-0.4	-5%
COc1ccc(NC(=O)NNc2cc(N3CCOCC3)nc(N3CCOCC3)n2)cc1
→ 0.7	-1.8	0.1	0.8	-2	-0.1	4%
O=C(CN1CCC(O)(c2ccc3c(c2)OCO3)CC1)OC1CCCCC1
→ 0.67	-0.9	-0.1	3.2	-3	-0.1	-3%
CC(=O)Nc1ccc(Br)cc1C(=O)C(=O)O
→ 0.66	0.1	0.3	3.5	-2	0.2	/
Cc1ccccc1-c1ccnc2[nH]n(-c3ccccc3)c(=O)c12
→ 0.69	4.2	-0.1	-1.1	1	0.7	5%
CCC(=O)Nc1ccc(NC(=O)C23CC4CC(CC(C4)C2)C3)cn1
→ 0.69	-0.1	0.9	5.2	1	5.9	13%
COc1ccccc1N1CCN(S(=O)(=O)c2c[nH]c(=O)[nH]c2=O)CC1
→ 0.69	1.3	0.9	1.0	-3	-2.9	7%
CCOC(=O)c1sc2nc(C3CC3)cc(-c3ccc(OC)cc3)c2c1N
→ 0.72	-1.7	-0.1	-60	-8	9.9	-1%
COC(=O)COc1cccc(/C=N/NC(=O)CCSc2ccccc2)c1
→ /	-3.0	1.2	/	12	-2.5	-2%
Cc1ccc(C)c(NC(=S)N2CCC(NC(=O)C3CCCCC3)CC2)c1
→ 0.66	0.4	0.2	4.9	1	0.4	/
COc1ccc(C(C)=O)cc1COC(=O)Cn1cnc2ccccc2c1=O
→ 0.72	3.2	-0.2	1.6	-4	3.9	-8%
CC1=C(C(=O)Nc2cccc(C(=O)NCc3ccc(F)cc3)c2)SCCO1
→ 0.6	-0.7	1.3	2.4	5	2.3	-1%
COc1ccc(Cl)cc1NC(=O)c1cc(C)no1
→ 0.68	0.2	1.0	3.0	13	2.2	-8%
CCC(C)(C)NC(=O)CN(C(=O)CCC(=O)Nc1nccs1)c1ccc(C)cc1
→ 0.68	-0.3	0.7	-1.7	4	0.6	/
COc1ccc(S(=O)(=O)N(C)CC(=O)N2CCCC2)cc1Cl
→ 0.65	4.0	0.0	4.6	-2	-5.4	4%
Cc1ccc(-n2c(C)c3c(C)nnc(C)c3c2C)cc1N
→ /	3.6	0.5	/	1	5.0	20%
COc1ccccc1N1CC(C(=O)NCCN2C(=O)S/C(=C\c3cccnc3)C2=O)CC1=O (stereo not drawn)
→ 0.7	0.8	0.8	4.3	1	-5.4	8%
CCCOc1ccc(-c2nc[nH]c2[N+](=O)[O-])cc1
→ 0.62	-4.4	-0.7	-3.4	1	-0.8	/
Cc1cccc(C)c1C(=O)N[C@@H](Cc1ccccc1)C(=O)O
→ /	1.4	0.8	0.4	5	0.8	-3%
O=C(CN1C(=O)NC2(CCCC2)C1=O)Nc1ccc(F)c(Cl)c1
→ 0.61	2.4	-0.3	2.1	-2	-1.3	/
Cc1cc2ccccn2c1C(=O)c1ccc(Cl)c([N+](=O)[O-])c1
→ 0.66	5.8	-1.3	2.3	3	-5.0	0%
COc1ccc(NC(=O)NNC(=O)COc2ccc(Cl)cc2C)cc1OC
→ 0.68	1.8	1.1	3.9	3	3.4	-4%
Cc1occc1C(=O)NNC(=O)c1ccccc1C(=O)O
→ 0.68	-5.7	-0.5	3.3	1	-7.2	-2%
O=C(Nc1cccc(F)c1)[C@@H]1CCCN1
→ 0.67	1.8	-0.9	4.3	2	-3.2	/
CN=C(NC)SC1CC(=O)N(c2ccccc2)C1=O (stereo not drawn)
→ 0.71	-0.4	0.3	2.2	-8	1.2	-7%
Cc1ccc(-c2c(NC(=O)c3ccco3)oc3ccccc3c2=O)cc1
→ 0.63	-1.3	0.4	7.6	0	-3.7	1%
C[C@H](NC(=O)COc1ccc(Cl)cc1)C(=O)N1CCC2(CC1)NCCc1[nH]cnc12
→ 0.7	3.9	0.1	0.7	-5	4.9	/
Cc1ccccc1NC(=S)NN1CCN(C)CC1
→ 0.7	-2.2	1.2	1.0	1	6.9	3%
Cc1ccc(CSc2ccc(-c3ccc4c(c3)OCO4)nn2)cc1
→ 0.72	-4.4	-0.2	2.9	4	2.9	/
CSCc1cc(N2CCCC2)nc(-c2ccccc2)n1
→ 0.65	-0.7	0.0	3.3	8	-4.9	-3%
COc1ccc(CN2CCC(N3CC(C)OC(C)C3)CC2)c(OC)c1OC (stereo not drawn)
→ 0.65	-3.4	-0.2	7.0	-2	4.0	0%
C=CCN1C(=O)/C(=C\c2ccco2)C(C(=O)OC)=C1C
→ 0.69	0.6	-0.3	7.4	-4	3.3	14µM*
CC1=NN(c2ccccc2)C(=O)C1C(=O)c1ccc([N+](=O)[O-])cc1 (stereo not drawn)
→ 0.69	0.5	0.1	2.4	4	-4.8	12%
O=C1N[C@H](Cc2ccccc2)COC(=O)[C@@H](Cc2ccc(F)cc2)C/C=C\C[C@H]1CC(=O)N(CCO)Cc1ccccc1
→ /	-1.5	-0.4	2.3	1	3.6	/
Cc1nn(C(=O)C2CC2)c(C)c1Sc1ccc(Cl)cc1
→ 0.74	-0.5	-0.5	-3.5	6	2.8	/
O=C(O)C1Nc2c(Cl)cc(Cl)c(Cl)c2C2C=CCC12 (stereo not drawn)
→ 0.68	-32	0.5	4.8	19	0.1	30µM*
